Biofilm kill mix = mixture kills Candida albicans biofilm cells; C. albicans biofilm persisters + clotrimazole, fluorescence viability; primary screen in compound mixtures of four per well; inhibition, % at 7.6 µM; 120,000 tested, 0.02% active; AID 1242;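 active = inhibition above 30.3% in the primary screen of four-compound pools, then above 30% when the compound was retested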;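 also: compounds exposed to preformed 24 h biofilms for 48 h; the number belongs to the whole pool; some results filed as inactive read as strong as hits; inactives centre near 12; 0% = biofilm with clotrimazole alone and 100% = kill control; retested singly at about 60 µM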
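Assay system: C. albicans biofilms / Medium: RPMI/MOPS medium, pH 7.0 / Schedule: biofilm formation 24 h, compound exposure 48 h, 37 °C / Measured by: Alamar Blue fluorescence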
* = called active by the depositor. Some of the compounds tested; count on the stated rates, not on these rows.

SMILES	Biofilm kill mix
CC(C)(C)C1C=C(Sc2ccccc2)C(=O)O1 (centres undefined)	18.6
C=C(C)Cn1c(C2CC(=O)N(c3ccccc3F)C2)nc2ccccc21 (centres undefined)	20.4
Cc1nc2sc(C(c3ccco3)N3CCN(c4ccccc4F)CC3)c(O)n2n1 (centres undefined)	8.1
S=C(NCCc1ccncc1)Nc1cccc2ccccc12	10.6
CCn1c(SCC(=O)NNC(=O)c2ccc(C)cc2)nnc1-c1ccco1	25.1
O=C(Nc1ccccc1-c1nc2ccccc2[nH]1)c1ccc(N2C(=O)CCC2=O)cc1	16.3
O=C(CN1CCCCCC1)N/N=C/c1cccc(Cl)c1	10.6
COC(=O)c1ccc(N2CCN(C(C)=O)CC2)c(NC(=O)c2cccnc2)c1	-5.6
c1ccc(-n2ncc3cccnc32)cc1	20.0
O=C(O)c1ccc(NS(=O)(=O)c2ccc3c(c2)C2C=CCC2C(c2ccccc2F)N3)cc1 (centres undefined)	13.2
O=C(NC1CCCCC1)Nn1c(-c2ccccc2)nc2ccccc2c1=O	13.2
O=C(Nc1nnc(SCC(=O)N2CCCc3ccccc32)s1)c1cccc2ccccc12	10.4
CCOC(=O)Cc1csc(NC(=O)c2ccc(S(=O)(=O)N3CCOCC3)cc2)n1	-1.6
Cc1cc(C)nc(SCc2ccc(C(=O)N/N=C/c3ccccc3C(=O)O)cc2)n1	26.7
O=C(Nc1ccc(Cl)cn1)C1CCN(S(=O)(=O)c2cccs2)CC1	21.5
Cc1nc(C(=O)NNC(=O)c2ccccc2Cl)c(C(F)(F)F)o1	14.7
CC(C)(C)C(=O)Nc1nnc(SCC(=O)Nc2ccc3c(c2)OCO3)s1	13.2
N#Cc1c(N)n(CCNC(=O)c2ccccc2)c2nc3ccccc3nc12	8.0
CC(=O)c1ccc(NC(=O)C(C)N2CCN(C/C=C/c3ccccc3)CC2)cc1 (centres undefined)	-9.2
COc1cc(OC)cc(C(=O)NCC(=O)OCC(=O)C(C)(C)C)c1	17.2
Cc1ccc(CNC(=O)C2CCCN(c3nn4c(=O)cc(C)nc4s3)C2)cc1 (centres undefined)	14.0
Cc1nn(Cc2ccccc2)c(C)c1/C=N/NC(=O)CNc1cccc(C(F)(F)F)c1	13.0
FC(F)(F)c1ccc(C2[C@H]3CN(Cc4ccc(-c5ccccc5)cc4)[C@H](c4ccccc4)C34CC2(c2ccccc2)C4)cc1 (some centres undefined)	18.6
Cn1nnnc1SCC1=C(C(=O)O)N2C(=O)C(NC(=O)C3CC3c3ccccc3)C2SC1 (centres undefined)	12.7
CC(C)CC(COCc1ccc(F)cc1)N1CCN(C(=O)c2cccc(C(F)(F)F)c2)CCC1=O (centres undefined)	20.0

(further entries)
SMILES	Biofilm kill mix
COc1ccc(S(=O)(=O)N2CCCCCC2)cc1C(=O)OC(C)C(N)=O (centres undefined)	18.2
CC1C/C(=N/NC(=O)c2ccc(CSc3nc4ccccc4[nH]3)cc2)CC(C)(C)C1 (centres undefined)	8.0
COc1ccc(CCNC(=O)Cn2c(=O)oc3cc(Cl)ccc32)cc1OC	1.2
CCN(CC)S(=O)(=O)c1cc(C(=O)OCC(=O)NC2CCCc3ccccc32)ccc1C (centres undefined)	14.0
Cc1ccc(-c2nc(CN(CC3CCC3)CC3CCCO3)c(C)o2)s1 (centres undefined)	-14.2
O=[N+]([O-])c1ccc(N2CCCC2)cc1NC1CC1	8.9
Cc1cc([N+](=O)[O-])nn1CC(=O)N/N=C/c1ccccc1O	16.6
Cc1sc2nc(SCC(=O)N(CCO)CCO)nc(N)c2c1C	8.3
CCOc1ccc2nc(N3C(=O)/C(=C/c4ccc(Cl)cc4)NC3=S)sc2c1	17.4
c1ccc(CN2CCC3(CC2)Nc2ccccc2S3)cc1	15.6
CCCCNC(C(=O)Nc1ccc([N+](=O)[O-])cc1Br)c1ccccc1 (centres undefined)	1.1
CCn1nnc(-c2ccc(N)cc2)n1	13.8
Cc1ccc(C(=O)c2ccccc2C(=O)OCC(=O)Nc2cccc([N+](=O)[O-])c2)cc1	18.4
CCOC(=O)c1sc2nc(CN3CCCCC3)nc(Cl)c2c1C	8.2
O=C(COC(=O)c1cccc(NS(=O)(=O)c2ccc(F)c(F)c2)c1)NC(=O)NC1CCCC1	12.4
O=C(CN(Cc1ccco1)C(=O)c1nsc(Cl)c1Cl)NC1CCCCC1	14.2
CCN(CC)C(=O)c1sc(NC(=O)Cc2ccccc2)c(C#N)c1C	9.4
COc1ccc(NC(=O)CCCn2c(=O)c3sccc3n(Cc3cccc(C)c3)c2=O)cc1	10.1
CCc1nc(N)c(C#N)c(-c2cccc3ccccc23)c1C	5.9
O=C(C(=O)N1CCc2ccccc2C1)c1cn(CC(=O)N2CCOCC2)c2ccccc12	10.7
Cc1ccc(C(C(=O)NC(C)(C)C)N(Cc2cccnc2)C(=O)C(=O)NC2CCCCC2)o1 (centres undefined)	16.4
NCCc1nnc(SCc2c(Cl)cccc2Cl)o1	25.6
O=C(O)c1nc(N2CCOCC2)nc(N2CCOCC2)n1	13.8
Cc1ccc(OCC(=O)N2CCCC(CCC(=O)N(C)CCc3ccccn3)C2)cc1 (centres undefined)	7.4
CNC(=O)C12CC3CC(CC(Cl)(C3)C1)C2	14.7

Not a retest: 2 of the compounds above.
SMILES	Biofilm kill mix
CCN(CC)S(=O)(=O)c1cc(C(=O)OCC(=O)NC2CCCc3ccccc32)ccc1C (centres undefined)	14.0
Cc1ccc(-c2nc(CN(CC3CCC3)CC3CCCO3)c(C)o2)s1 (centres undefined)	-14.2

More records:
SMILES	Biofilm kill mix
CC(Sc1cccc[n+]1[O-])C(=O)Nc1ccc([N+](=O)[O-])cc1Cl (centres undefined)	13.5
O=C1N=C(N2CCN(c3ccccc3)CC2)S/C1=C/c1cccs1	4.3
O=C(CSc1ncccn1)NN=C1CCCCCC1	14.5
OCCOCCOc1cccc2[nH]ccc12	14.8
Cn1c(=S)[nH]c(=O)c2ncc(=O)[nH]c21	13.0
CC(Oc1cc(Cl)ccc1Cl)C(=O)N/N=C\c1ccnn1C (centres undefined)	10.0
O=C(Nc1ccc2c(c1)OCO2)c1ccc(=O)[nH]n1	14.7
Cc1ccc(C(=O)O)cc1NC(=O)CSc1ncnc2sc3c(c12)CCC3	32.6
CCOc1ccccc1Nc1nnc(SCC(=O)Nc2cccc(S(=O)(=O)NC3=NCCCCC3)c2)s1	8.8
CCOC(=O)c1c(-c2ccc(F)cc2)csc1NC(=O)C1CC=CCC1C(=O)O (centres undefined)	6.5
Cc1nc2ccccc2n1S(=O)(=O)c1ccc(Br)cc1	2.6
CCOC(=O)c1c[nH]n(-c2ccccc2)c1=O	12.2
COc1ccccc1N1CCN(CC(=O)N(CC(C)C)c2c(N)n(CC(C)C)c(=O)[nH]c2=O)CC1	7.5
CC(C)=CCN1CCN(Cc2ccc(C#CC(C)(C)O)s2)CC1CCO (centres undefined)	14.8
Cn1cc(CN2CCC(CO)(CCCc3ccccc3)CC2)c(-c2ccccc2)n1	-2.7
Cc1cccc(OCC(=O)NNC(=O)c2cccs2)c1	14.5
C=CCN1C(=O)/C(=C\c2ccco2)C(C(=O)OC)=C1C	8.3
COc1cc(/C=C/C(=O)OCC(=O)Nc2ccc(C)cc2[N+](=O)[O-])ccc1O	14.0
CCOc1ccc(NC(=O)Nc2cc(OCC(F)(F)F)cc(OCC(F)(F)F)c2)cc1	18.9
CCOC(=O)CC(NC(=O)c1cccc2c1C(=O)N(Cc1cccnc1)C2)c1ccc(OC(C)C)cc1 (centres undefined)	14.3
O=C1/C(=C\c2ccco2)CCC/C1=C\c1ccco1	15.7
FC(F)(F)c1cccc(Cc2noc(CN3CCCC3)n2)c1	21.2
O=C(Cc1ccc(Cl)cc1)N/N=C/c1ccccc1	20.9
C/C(=N\NC(=O)COc1ccc(C(C)(C)C)cc1)c1cc2ccccc2o1	5.6
CCOC(=O)COc1ccc2c(C#N)c3ccccn3c2c1	7.6

(list continues)
SMILES	Biofilm kill mix
O=C(Nc1ccccc1)c1ccc(Br)c(S(=O)(=O)Nc2cccnc2)c1	13.2
COc1cccc(-c2ccc(C#N)c(SCC(=O)NCc3ccco3)n2)c1	15.4
NS(=O)(=O)c1ccc(NC(=S)Nc2ccn(Cc3cccc4ccccc34)n2)cc1	10.2
O=C(Cc1ccccc1)O/N=C1\CCCc2ccccc21	1.5
O=C(NC1CC1)C1=C[C@H](c2ccc(C(F)(F)F)cc2)C[C@H](OCc2ccc(CO)cc2)O1	10.9
COc1ccc(S(=O)(=O)N2CCOCC2)cc1NC(=O)COC(=O)C1=COCCO1	15.6
Cc1cc(C(=O)NNC(=O)CCN2CCN(c3ccccc3)CC2)c2ccccc2n1	7.3
COc1ccc(NC(=O)COC(=O)Cc2ccc(-c3ccccc3)cc2)c(OC)c1	7.4
CSc1sc(-c2ccnc(SCCS(C)(=O)=O)n2)c(-c2ccccc2)c1C#N	13.7
O=C(CSc1nc(-c2ccccc2)cc(C(F)(F)F)n1)NCc1cccs1	-1.9
Cc1sc(NC(=S)Nc2ccc(F)cc2)c(C(N)=O)c1C	-8.8
CNS(=O)(=O)c1cc(OC)c(OC)cc1CC(=O)OC	-16.8
COC(=O)[C@]12C(=O)C(C)=C(O)[C@@]1(C)C(C)=CC1[C@@]34CC[C@@H](OC(C)=O)C(C)(C)C3C(C[C@]12C)OC4=O (some centres undefined)	19.3
CC1CCCCC1NCC(=O)NCc1ccc(F)cc1 (centres undefined)	14.5
O=c1cnnc(Nc2ccc(Cl)c(C(F)(F)F)c2)[nH]1	10.6
N#Cc1ccc(C(=O)Nc2nc(-c3cccs3)c(C(=O)C(F)(F)F)s2)cc1	14.8
CC1(C)CC(=O)C=C(NNC(=O)c2cccnc2)C1	3.6
O=C(NNc1nc2c(F)cccc2s1)c1cc(=O)c2ccccc2o1	21.2
COC(=O)c1ccc(-c2nc(O)c(C)s2)cc1	2.1
CC(C)(C)c1csc(Sc2ncccc2[N+](=O)[O-])n1	20.4
CCc1nnc(NC(=O)CSc2ccc(-c3ccc(F)cc3)nn2)s1	0.0
O=C(O)CCC(=O)N1N=C(c2ccccc2)CC1c1ccc2nccnc2c1 (centres undefined)	13.1
O=C(COC(=O)c1ccc(S(=O)(=O)N2CCc3ccccc3C2)cc1)NC1CCS(=O)(=O)C1 (centres undefined)	6.3
Cc1ccccc1Nc1nc(N)nc(CSc2nncn2C)n1	7.8
C=C(C)CNC(=S)N/N=C/c1ccc(N2CCOCC2)cc1	19.3

(cont.)
SMILES	Biofilm kill mix
Brc1ccc2ncc(Br)cc2c1	14.0
CCCCc1ccc(NC(=O)COc2ccc(C(=O)Nc3ccccc3C)cc2)cc1	4.0
CCOC(=O)c1c(C)c(C(=O)NCc2ccco2)c(C)n1CC	19.5
CCC(C)Sc1nc2c(c(=O)[nH]1)C(c1cccs1)C1=C(CCCC1=O)N2 (centres undefined)	-8.8
Cc1ccc(S(=O)(=O)N2CCOCC2)cc1C(=O)c1nccn1C	18.4
CCOc1ccc(-c2cc(C(=O)OC)[nH]n2)cc1	-4.5
Cc1cccc(CN2CCN(Cc3ccc4nonc4c3)CC2CCO)n1 (centres undefined)	13.7
CCN1C(C)=C(C)S/C1=C1\SC(=S)N(C2CCCCC2)C1=O	6.3
C/C=C(\C)C(=O)NCCN1C2=NC[C@H](Cc3ccc(O)cc3)N2C[C@H]1Cc1ccc(O)cc1	18.1
CCC(C)(NC(=O)c1ccccc1)C(=O)O (centres undefined)	15.7
CN1CCS/C1=C\C=C1/SC(=S)N(CC(=O)O)C1=O	12.8
O=C(O)CCC(=O)N1N=C(c2c(-c3ccccc3)c3cc(Cl)ccc3[nH]c2=O)CC1c1ccccc1 (centres undefined)	12.7
COc1ccc(C2CC(=O)C=C(NNS(=O)(=O)c3ccc(C)cc3)C2)cc1 (centres undefined)	13.7
O=C(COc1ccccc1)N/N=C/c1sc(=O)n(Cc2cccc(C(=O)O)c2)c1Cl	23.7
Cn1cc2cc([N+](=O)[O-])ccc2n1	10.1
N/C(=N\NC(=O)c1ccc(F)cc1)c1cc2ccccc2oc1=O	16.3
Cc1ccc(NCC(=O)Nc2ccc(Br)cc2)cc1F	18.8
O=C(Cn1nnc(-c2ccccc2NC(=O)c2ccccc2F)n1)NC1CCCC1	22.8
O=C(CN1CCCCC1)NCCNc1ccc(C(F)(F)F)cc1[N+](=O)[O-]	4.4
COc1cc(SC)ccc1C(=O)Nc1c(Cl)cncc1Cl	15.5
O=C(CCC(=O)Nc1ccc(F)cc1)N/N=C/c1cc([N+](=O)[O-])ccc1O	13.8
O=[N+]([O-])c1ccccc1S(=O)(=O)N1CCCCC1	16.9
COc1ccc(CNC(=O)CCSc2nc(-c3ccc4c(c3)OCO4)cc(C(F)(F)F)n2)cc1	12.4
Cc1cccc(Cc2nnc(CCC(=O)NCc3cnc4ccccn34)o2)c1	13.3

Compounds above with a Cl atom:
SMILES	Biofilm kill mix
O=C(CN1CCCCCC1)N/N=C/c1cccc(Cl)c1	10.6
O=C(Nc1ccc(Cl)cn1)C1CCN(S(=O)(=O)c2cccs2)CC1	21.5
Cc1nc(C(=O)NNC(=O)c2ccccc2Cl)c(C(F)(F)F)o1	14.7
COc1ccc(CCNC(=O)Cn2c(=O)oc3cc(Cl)ccc32)cc1OC	1.2
CCOc1ccc2nc(N3C(=O)/C(=C/c4ccc(Cl)cc4)NC3=S)sc2c1	17.4
CCOC(=O)c1sc2nc(CN3CCCCC3)nc(Cl)c2c1C	8.2
O=C(CN(Cc1ccco1)C(=O)c1nsc(Cl)c1Cl)NC1CCCCC1	14.2
NCCc1nnc(SCc2c(Cl)cccc2Cl)o1	25.6
CNC(=O)C12CC3CC(CC(Cl)(C3)C1)C2	14.7
CC(Sc1cccc[n+]1[O-])C(=O)Nc1ccc([N+](=O)[O-])cc1Cl (centres undefined)	13.5
CC(Oc1cc(Cl)ccc1Cl)C(=O)N/N=C\c1ccnn1C (centres undefined)	10.0
O=C(Cc1ccc(Cl)cc1)N/N=C/c1ccccc1	20.9
O=c1cnnc(Nc2ccc(Cl)c(C(F)(F)F)c2)[nH]1	10.6
O=C(O)CCC(=O)N1N=C(c2c(-c3ccccc3)c3cc(Cl)ccc3[nH]c2=O)CC1c1ccccc1 (centres undefined)	12.7
O=C(COc1ccccc1)N/N=C/c1sc(=O)n(Cc2cccc(C(=O)O)c2)c1Cl	23.7
COc1cc(SC)ccc1C(=O)Nc1c(Cl)cncc1Cl	15.5
